# SARS PLpro yeast: qHTS of Yeast-based Assay for SARS-CoV PLP; S. cerevisiae expressing SARS-CoV PLpro, growth rescue; control for the full effect not named in the record; Potency, µM (doses to about 32.9 µM), for the others: top-dose activity, positive = growth rescue; 330,000 tested, 0.19% active; AID 485353, 2010; active means well fitted rising curve with a large enough effect; inconclusive means small, poorly fitted or top-dose-only effect; inactive means no such curve, though single readings can be large or run the other way; also: 0% is about no effect; nearly all actives have a fitted effect of over 55% in size; growth read by luminescence after 48 h
# RE007 growth inh: qHTS Assay for Inhibitors of the HIV-1 protein Vpr; S. pombe RE007 Vpr strain, BacTiter-Glo ATP luminescence, 24 h; control for the full effect not named in the record; Potency, µM (doses to about 92.2 µM), without a hit: at the highest dose activity change, negative = less growth; 360,000 tested, 0.21% active; AID 651644, 2012; active = well fitted falling curve with a large enough effect; inconclusive = small, poorly fitted or top-dose-only effect; inactive = no such curve, though single readings can be large or run the other way;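 also: % is scaled to controls: 0 for no effect and ±100 for the full control effect; nearly all actives have a fitted effect of over 50% in size; the assay follows cell death caused by Vpr and the record does not say whether a fall means rescue or toxicity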
#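 Fission yeast strain RE007, carrying one chromosomally integrated HIV-1 vpr copy, was seeded at OD 0.01 in PMG+AL medium with 23 nL pinned compound. After 24 h at 30 °C and 99% humidity, viability was read by BacTiter-Glo luminescence.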
# Cruzain inh Det: qHTS Assay for Promiscuous and Specific Inhibitors of Cruzain (with detergent); Cruzipain (Trypanosoma cruzi), P25779; purified cruzain, Z-FR-AMC fluorescence, 0.01% Triton; Potency, µM, inactives show max response, negative = inhibition, usual class: inhibitors; 200,000 tested, 0.43% active;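 also: plate controls were neutral wells for no effect and buffer without enzyme for full effect; nearly all actives have a fitted effect of over 40% in size; top concentration of the series not given in the record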
# Target sequence (P25779 123-467 limits assumed): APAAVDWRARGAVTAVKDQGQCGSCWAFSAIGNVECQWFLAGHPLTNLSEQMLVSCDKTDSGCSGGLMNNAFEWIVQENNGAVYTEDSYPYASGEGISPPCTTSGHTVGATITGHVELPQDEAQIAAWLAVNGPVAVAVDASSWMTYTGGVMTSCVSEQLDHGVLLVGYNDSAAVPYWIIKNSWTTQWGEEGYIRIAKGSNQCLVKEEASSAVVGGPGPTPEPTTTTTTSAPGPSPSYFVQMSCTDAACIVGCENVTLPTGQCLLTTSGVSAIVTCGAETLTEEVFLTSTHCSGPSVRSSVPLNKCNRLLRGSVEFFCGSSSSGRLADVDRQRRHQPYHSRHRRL
#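 Cruzain (1.5 nM) preincubated 15 min at RT with compound in 100 mM sodium acetate pH 5.5, 5 mM DTT, 0.01% Triton X-100. Reaction started with 2 uM Z-FR-AMC; AMC fluorescence (ex 360/em 450 nm) change over 60 s gave rate.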
# NS1 function inh: qHTS Assay for Inhibitors of Influenza NS1 Protein Function; S. cerevisiae slowed by influenza A NS1, growth recovery by OD600; Potency, µM (top dose mostly 46.1 µM), without a hit: at the highest dose activity, positive = more growth; 270,000 tested, 0.4% active; AID 2326, 2010; active means well fitted rising curve with a large enough effect; inconclusive means small, poorly fitted or top-dose-only effect; inactive means no such curve, though single readings can be large or run the other way; also: nearly all actives have a fitted effect of over 50% in size
#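 S. cerevisiae expressing influenza A NS1, grown in glucose, washed, then diluted 1:100 into pH 6.0 -URA galactose medium with 23 nl compound. Growth recovery read as OD600; NS1-free strain serves as control.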
# 2A StopGo: High Throughput Screening for Foot and Mouth Disease Virus Antivirals. human cells with a luciferase reporter of 2A StopGo recoding; control for the full effect not named in the record. Potency, µM (top dose mostly 57.9 µM), without a hit: at the top dose signal change, negative = less light. 410,000 tested, 1.2% active; active = well fitted falling curve with a large enough effect; inconclusive = small, poorly fitted or top-dose-only effect; inactive = no such curve, though single readings can be large or run the other way; tested in HEK293T cells; also: % is scaled to controls: 0 for no effect and ±100 for the full control effect; nearly all actives have a fitted effect of over 45% in size; luciferase light after 4 h
# MARV entry inh: qHTS for inhibitors of binding or entry into cells for Marburg Virus | Marburg virus pseudotyped entry inhibition, cell reporter; control for the full effect not named in the record; about a third of the inactives were read at about 46 µM | Potency, µM (highest dose often 37.8 µM), without a hit: top-dose activity change, negative = inhibition, usual class: inhibitors | 300,000 tested, 1.8% active | AID 540276, 2011; active = well fitted inhibition curve with a large enough effect; inconclusive = small, poorly fitted or top-dose-only effect, or effect the other way; inactive = flat fitted curve, though single readings scatter; tested in HEK293 cells; about a fifth of its hits are not listed in these tables; also: % is scaled to controls: 0 for no effect and ±100 for the full control effect; luciferase read-out
# LASV entry inh: qHTS for Inhibitors of binding or entry into cells for Lassa Virus; Lassa virus pseudotype entry inhibition, cell reporter; control for the full effect not named in the record; AID 540256, 2011; Potency, µM (highest dose often 37.9 µM), without a hit: at the highest dose activity change, negative = inhibition, most hits filed as inhibitors; 300,000 tested, 1.2% active; active means well fitted inhibition curve with a large enough effect; inconclusive means small, poorly fitted or top-dose-only effect, or effect the other way; inactive means flat fitted curve, though single readings scatter; tested in HEK293 cells; also: % is scaled to controls: 0 for no effect and ±100 for the full control effect; nearly all actives have a fitted effect of over 50% in size; luciferase read-out
# Cruzain inh noDet: qHTS Assay for Promiscuous and Specific Inhibitors of Cruzain (without detergent); Cruzipain (Trypanosoma cruzi), P25779; purified cruzain, Z-FR-AMC fluorescence, no detergent; Potency, µM, for inactives: max response, negative = inhibition, actives largely listed as inhibitors; 200,000 tested, 2.3% active; AID 1476, 2009;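 also: plate controls were enzyme without inhibitor for no effect and buffer without enzyme for full effect; nearly all actives have a fitted effect of over 40% in size; top concentration of the series not given in the record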
#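 Detergent-free condition (0.00005% Triton X-100) in acetate buffer pH 5.5 with DTT. 1.5 nM enzyme and compound were pre-mixed 15 min, then 2 uM Z-FR-AMC substrate added; reaction progress from fluorescence change between first and third reads (60 s).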
# Numbers without * were called inactive; ? = inconclusive; . = not tested or not shown; & = joins results of further samples; [ ] = another dose, or the depositor's remark. Unless noted, calls follow the shape of the dose curve; as a rule, active = well fitted curve in the direction sought with a large enough effect; inconclusive = small, poorly fitted or top-dose-only effect, or another doubt; inactive = no such curve, though single readings can be large; an effect the other way counts as inactive or inconclusive. Potency is read from the fitted curve at half-maximal effect.
SMILES,SARS PLpro yeast,RE007 growth inh,Cruzain inh Det,NS1 function inh,2A StopGo,MARV entry inh,LASV entry inh,Cruzain inh noDet
COc1cc2c(cc1NC(=O)CCCCCN1C(=O)CCC1=O)oc1ccccc12,-11%,17%,-11%,-5%,-20%,4%,6%,?
Cc1onc(C(=O)N2C(C)CCCC2C)c1[N+](=O)[O-] (centres undefined),-2%,16%,-0.4%,15%,-14%,?,3%,6%
CCOc1ccc2ccccc2c1/C=N/NC(=O)c1cc(C)[nH]n1,-2%,-2%,.,-3%,0%,-18%[46.1 µM],-22%[46.1 µM],.
Cc1ccc(C(=O)N/C(=C\c2sccc2C)C(=O)NCCCN2CCOCC2)cc1,0%,-2%,.,-2%,15%,-11%[46.1 µM],2%,.
Cc1cc(-c2nnc(SCC(=O)Nc3ccccc3C(F)(F)F)n2N)n[nH]1,2%,17%,.,5%,-17%,.,.,.
Cc1ccc(NS(=O)(=O)c2ccc(-c3ccc(=O)[nH]n3)o2)cc1,1%,5%,.,2%,24%,-2%[46.1 µM],12%[46.1 µM],.
COCCNC(=S)N1CCN(Cc2cccc(OC)c2)CC1,-1%,-2%,.,-1%,-12%,.,.,.
O=C(NNC(=O)c1ccccc1[N+](=O)[O-])c1ccc(NC(=O)c2ccccc2)cc1,2%,4%,.,-1%,-21%,14%,4%,.
Cc1ccc(S(=O)(=O)N/N=C/c2cccn2-c2ccc(Cl)cc2)cc1,-2%,24%,-0.6%,-9%,65%[activator],3%,?,-26%
O=C(O)CCC(=O)Nc1ccc(Br)cn1,-2%,-3%,6.7%,0%,-8%,-6%[46.1 µM],6%,-4%
CC(C1CC1)N(C(=O)NC1CCS(=O)(=O)C1)c1ccccc1 (centres undefined),9%,22%,6.4%,?,-10%,-6%,0%,-4%
O=C(NCc1ccccc1Cl)c1ccccc1NC(=O)c1nsc2ccccc12,.,.,2.2%,.,23%,.,1%[46.1 µM],4%
COC(=O)c1sc2cccc(F)c2c1S(=O)(=O)Nc1ccc(C)cc1Cl,.,.,-12%,.,6%,.,30%[46.1 µM],-4%
Cc1ccc(NC(=O)Cn2c(=O)oc3cc(S(=O)(=O)N4CCCCC4)ccc32)c(C)c1,.,.,-3.1%,.,?,2%[46.1 µM],.,1%
C/C(=N\NC(=S)Nc1cc(S(=O)(=O)N2CCOCC2)ccc1Cl)c1ccc(N2CCOCC2)cc1,-1%,-3%,.,3%,-7%,.,.,.
Cc1ccc(-n2[nH]c(C)c(C=Nc3ccc(S(=O)(=O)Nc4nc(C)cc(C)n4)cc3)c2=O)c(C)c1,6%,-6%,0.5%,-17%,41%[activator],?,11%,-7%
CCCOc1ccc(C(=O)C(CN2CCCC2)c2ccccc2)cc1 (centres undefined),-36%,-3%,-1.2%,-54%,18µM*,?,?,0%
CCc1ccc(-c2csc(NC(=O)C3=NN(c4ccccc4)C(=O)CC3)n2)cc1,-16%,1%,-8.4%,?,?,?,10%,?
COc1nc(N)nc(CC(=O)C2CC2)n1,-3%,0%,1.6%,-4%,-1%,-11%,-8%,-8%
Cc1cnc(NS(=O)(=O)c2ccc(Cl)cc2)c(Br)c1,-4%,1%,.,-60%,9%,13%[46.1 µM],28%,.
CCOC(=O)CCc1c(C)c(C#N)c2nc3ccccc3n2c1-n1ccnc1C,5%,-9%[3.69 µM],-4.6%,1%,5%,-1%&-1%,12%,-7%
CCc1ccc(C(=O)NNc2cc(Cl)ccc2Cl)cc1,-2%,1%,.,-9%,-25%,.,.,.
CC(=O)c1c(N2CCN(c3ccc(F)cc3)CC2)nc(=S)n(-c2ccccc2)c1C,18%,-15%,-2.6%,26%,-21%,-8%,-10%,10%
Cc1ccc(S(=O)(=O)NCC(=O)NCc2cc(=O)n(C)c(=O)n2C)cc1C,0%,46%,.,-6%,-5%,.,.,.
CN(CC(=O)NC1CCCc2ccccc21)S(=O)(=O)c1ccc2c(c1)c(=O)n(C)c(=O)n2C (centres undefined),0%,-15%,-0.2%,-57%,-7%,.,.,24%
OC(COc1ccc(Cl)cc1)CN1CCN(c2cccc(Cl)c2)CC1 (centres undefined),-13%,7%,.,-52%,-16%,?,4%[46.1 µM],.
COc1cccc(N2CC(NC(=O)c3ccc(S(=O)(=O)N4CCOCC4)cc3)CC2=O)c1 (centres undefined),.,.,-0.5%,.,-15%,.,12%[46.1 µM],28%
CCCN(CCC)C(=O)CSc1ncccc1C(=O)O,13%,-9%,-1.3%,-11%,-20%,-21%,1%,-11%
CCCc1cc(=O)oc2cc(C)cc(OC(C)C(=O)N[C@@H](Cc3c[nH]c4ccccc34)C(=O)O)c12 (some centres undefined),-1%,-10%,.,?,0%,-8%,.,.
CN(CC(=O)Nc1cccc(F)c1)S(=O)(=O)c1ccc2c(c1)n(C)c(=O)c(=O)n2C,.,.,-2.7%,.,10%,0%[46.1 µM],20%[46.1 µM],4%
O=C(CSc1cn(CCNC(=O)c2cccs2)c2ccccc12)NC1CCCCC1,-2%,0%,-5.1%,-10%,-29%,4%,.,1%
Nn1c(SCC(=O)N2CCOCC2)nnc1-c1ccc(Cl)cc1Cl,-4%,19%,2.1%,-4%,10%,14%,-5%,7%
CC1CCN(S(=O)(=O)c2ccc3c(c2)N(CC(=O)NCc2ccccc2Cl)C(=O)CS3)CC1,.,.,1.9%,.,-15%,.,0%[46.1 µM],13%
NC(=O)N/N=C/c1ccccc1OC(=O)c1cc2ccccc2oc1=O,14%,11%,.,-6%,0%,.,.,.
O=C(COc1ccccc1-c1nc(-c2ccccc2)no1)Nc1ccccc1[N+](=O)[O-],.,.,-5.6%,.,20%,?,-20%[46.1 µM],3%
Cc1ccccc1N1CCN(Cc2nc(Cc3ccccc3F)no2)CC1,0%,-19%,.,-36%,0%,-3%[46.1 µM],-3%,.
CN(CC(=O)Nc1cc([N+](=O)[O-])ccc1Cl)Cc1ccc(Br)cc1,-10%,18%,-8.1%,-1%,-1%,-20%,8%,-8%
COc1ccc(-c2cn3c(n2)sc2cc(C(=O)NCCC4=CCCCC4)ccc23)cc1,.,.,-2.5%,.,0%,.,-14%[46.1 µM],9%
O=c1[nH]c(=O)n(CCCc2ccccc2)cc1-c1ccccc1,.,5%,.,.,-16%,-1%,-27%,.
COc1cc(NS(=O)(=O)c2ccc3[nH]c(=O)[nH]c3c2)cc(OC)c1,-4%,7%,-3.0%,5%,8%&4%,-19%[46.1 µM],?,-5%
CSc1nc(=S)n(-c2ccc([N+](=O)[O-])cc2)c(C)c1C(C)=O,9%,24%,.,19%,9%,.,.,.
COCCC(=O)N1CCC(Oc2ccc(C(=O)NCc3cccc(C)n3)cc2)CC1,1%,-16%,.,9%,0%,1%,-13%,.
C/C(=N\NC(=O)c1nc(C)cc(C)n1)c1ccccc1,-3%,-5%,-4.8%,4%,25%,-29%[46.1 µM],?,4%
CCOc1ccc2nc(SCC(=O)NCC3CCCO3)c(C#N)cc2c1 (centres undefined),2%,8%,.,-4%,7%,?,?,.
Cc1cc(NC(=O)c2cc(-c3ccc(Cl)cc3)on2)nn1Cc1ccc(Cl)cc1,.,.,1.7%,.,?,?,18%[46.1 µM],-8%
O=C(Nc1ccccc1F)C1CCCN(S(=O)(=O)c2ccccc2)C1 (centres undefined),1%,-5%,.,.,?,?,-30%,.
Cn1c(NN)nc2sc3c(c2c1=O)CCC3,-5%,9%,-1.8%,11%,16%,10%,5%,-2%
COCCn1c(CCC(=O)O)nc2c1c(=O)[nH]c(=O)n2CC(C)C,?,0%,2.4%,1%,4%,11%,-5%,-6%
Cc1ccc(CSc2nnc(-n3c(=O)c(C#N)cc4c(=O)n5cccc(C)c5nc43)s2)cc1,.,.,-2.4%,.,-13%,-9%[46.1 µM],?,15%
CCSc1sccc1C1C(C#N)=C(N)N(c2cccnc2)C2=C1C(=O)CCC2 (centres undefined),6%,5%,-5.7%,-10%,-7%,-19%,5%,-5%
CCOc1ccc(NC(=O)c2cc(S(=O)(=O)N3CCOCC3)cs2)cc1,1%,-10%,.,3%,23%,-15%[46.1 µM],26%[46.1 µM],.
COc1ccc(CCCc2nnc(SCC(=O)NN)o2)c(C)c1,-1%,-2%,.,6%,-6%,-3%[46.1 µM],?,.
CCOC(=O)c1cc(NC(=O)c2ccccc2)c(=O)oc1C(F)(F)F,-4%,6%,.,.,25%,1%[46.1 µM],-1%,.
O=C(CNC(=O)c1cccc(F)c1)OCC(=O)N1CCN(C(=O)c2ccco2)CC1,0%,1%,.,-1%,-15%,7%[46.1 µM],17%[46.1 µM],.
C[C@H](NC(=O)Nc1ccc2c(c1)OCCO2)C(=O)O,?,15%,4.1%,-4%,11%,?,4%,-2%
CC(C)Sc1nnc([C@@H](N)Cc2c[nH]c3ccccc23)o1,1%,18%,-2.0%,-8%,39%[activator],?,1%,7%
Cc1ccc2c(CC(=O)OCc3nc(N)nc(Nc4ccccc4C)n3)coc2c1,-6%,-3%,-7.1%,-56%,-6%,15µM*,-3%,-5%
COc1ccc2c(c1)c(CC(=O)O)c(C)n2C(=O)c1ccccc1,.,.,-1.7%,-3%,.,?,0%,4%
c1cncc(-c2nc3c(ccc4ccccc43)[nH]2)c1,-3%,6%,-5.9%,-22%,.,-26%,19%,-9%
O=C(CSC(=S)N1CCSCC1)c1ccc(Cl)cc1,1%,10%,.,.,0%,?,.,.
CCOC(=O)Cc1nnc(NC(=O)C(CC)Sc2nnc3c4ccccc4n(C)c3n2)s1 (centres undefined),-3%,-2%,-7.1%,-28%,.,11%,?,?
COC(=O)CCCC(=O)Nc1c(F)c(F)c(F)c(F)c1F,14%,-7%,0.5%,-7%,-14%,21%,?,-3%
